GLA inh pH 4.5 – blocks human alpha-galactosidase A at pH 4.5; AID 1467; activity change, negative = inhibition, % at 105 µM; 230,000 tested, under 10 active; purified enzyme, 4-MU-alpha-Gal fluorescence, pH 4.5; inconclusive = small, poorly fitted or top-dose-only inhibition, or a rising curve; inactive = flat fitted curve, though single readings scatter; no compound was filed as active;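 further: 0% = full activity with enzyme and -100% = basal without enzyme; dose as in the result columns while the protocol names 77 µM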
Rango-impB inh – inhibitors of Rango-importin beta complex formation; Rango CFP/YFP FRET sensor + importin beta, 45 min; AID 540263; actives 0.031% (n = 340,000); Potency, µM (doses to about 92.2 µM), for inactives: at the highest dose inhibition of complex formation; active = rising FRET ratio curve, often small or poorly fitted; inconclusive = mostly compound fluorescence or quenching in the first reads; inactive = flat curves in all reads;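 further: potency means the concentration at half of the fitted maximal effect; 0% = DMSO wells and 100% = buffer wells lacking importin beta; nearly all actives have a fitted effect of over 15% in size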
Target sequence (Q14974 whole entry, looked up): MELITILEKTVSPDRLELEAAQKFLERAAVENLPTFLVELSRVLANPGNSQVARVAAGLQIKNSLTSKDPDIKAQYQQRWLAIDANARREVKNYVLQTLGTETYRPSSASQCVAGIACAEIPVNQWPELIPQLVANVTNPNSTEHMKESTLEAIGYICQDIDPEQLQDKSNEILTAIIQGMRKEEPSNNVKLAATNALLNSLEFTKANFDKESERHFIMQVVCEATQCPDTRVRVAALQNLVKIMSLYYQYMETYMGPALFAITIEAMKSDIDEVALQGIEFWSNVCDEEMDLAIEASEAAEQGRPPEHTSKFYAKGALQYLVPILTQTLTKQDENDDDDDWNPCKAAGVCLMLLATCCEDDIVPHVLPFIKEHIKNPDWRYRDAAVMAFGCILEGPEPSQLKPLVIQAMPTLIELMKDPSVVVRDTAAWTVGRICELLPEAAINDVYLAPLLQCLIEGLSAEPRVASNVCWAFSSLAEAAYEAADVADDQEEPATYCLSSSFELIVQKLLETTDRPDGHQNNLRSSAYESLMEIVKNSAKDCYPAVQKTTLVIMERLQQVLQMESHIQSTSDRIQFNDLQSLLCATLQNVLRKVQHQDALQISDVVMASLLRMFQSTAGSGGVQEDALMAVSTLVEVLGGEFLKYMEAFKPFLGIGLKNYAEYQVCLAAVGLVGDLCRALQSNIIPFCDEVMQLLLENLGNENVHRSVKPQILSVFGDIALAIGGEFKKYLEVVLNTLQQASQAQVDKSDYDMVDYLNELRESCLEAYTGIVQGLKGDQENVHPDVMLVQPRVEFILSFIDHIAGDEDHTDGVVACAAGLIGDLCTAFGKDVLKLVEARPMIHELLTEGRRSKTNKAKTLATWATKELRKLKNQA
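Inhibition scored from the CFP 486 nm/YFP 530 nm FRET ratio 45 min after adding 0.125 microM importin beta to 50 nM Rango biosensor preincubated 5 min with compound (room temperature, PBS with DTT, Tween-20, BSA). No-importin wells as positive control.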
Rango release inh – inhibitors of RanGTP-induced Rango-importin beta complex dissociation. Potency, µM (top dose mostly 46.1 µM), inactives show top-dose activity change, negative = inhibition. actives 0.071% (n = 340,000). Biochemical FRET Rango-importin beta, RanGTP-induced dissociation; active means falling FRET ratio curve, often poorly fitted, with flat reads before Ran was added; inconclusive means other falling curves, or compound fluorescence or quenching; inactive means flat or rising ratio curve;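 further: potency means the concentration at half of the fitted maximal effect; % of control where 0% means no effect; nearly all actives have a fitted effect of over 45% in size; -100% = wells without RanGTP and RCC1; the record marks most hits as doubtful in a second field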
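Quantitative HTS using a FRET biosensor: 0.1 uM Rango, 0.25 uM importin beta, 0.6 uM Ran, 2 mM GTP, 0.2 uM RCC1 final, PBS with DTT, Tween-20 and BSA. Post-read taken 45 min after Ran addition.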
miR-21 FLuc – miR-21 reporter, rising signal. 340,000 tested, under 10 active. Potency, µM (top dose mostly 38.3 µM), without a hit: top-dose reporter change, positive = more light. AID 2288. HeLa miR-21 FLuc reporter, luciferase, 48 h; active = well fitted rising curve with a large enough effect; inconclusive = small, poorly fitted or top-dose-only effect; inactive = no such curve, though single readings can be large or run the other way;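 further: % of control where 0% means no effect; miR-21 action dims this reporter so a rising signal means less miR-21 action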
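Luminescence from a firefly luciferase reporter carrying a miR-21 binding site downstream, stably expressed under a CMV promoter in HeLa cells that make miR-21 endogenously, reports miRNA modulation after 48 h compound exposure up to approximately 40uM final.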
* hit, by the source's call; ? = inconclusive; nt = not tested or not shown. These rows are one share of the data (hit frequency here may not be typical).

structure	GLA inh pH 4.5	Rango-impB inh	Rango release inh	miR-21 FLuc
CN1CCN(c2oc(-c3ccco3)nc2S(=O)(=O)c2ccccc2)CC1	-0.9	2.2%	-10.8%	2.4%
CC1Cc2ccccc2N1CC(=O)Nc1ccc(Cl)c(S(=O)(=O)N(C)C)c1 (configuration not stated)	1.7	1.7%	-6.2%	3.5%
CCOC(=O)N1CCN(C(=O)c2cc(S(=O)(=O)N3CCCC3)cn2C)CC1	-4.5	-0.3%	-2.6%	-7.5%
Cc1ccc2c(c1)C1CN(C)CCC1N2C(=O)c1ccccc1NS(=O)(=O)c1ccc(F)cc1 (configuration not stated)	9.2	-3.2%	-9.5%	2.1%
CC(C)CN(CC(C)C)C(=O)C12CCC(C)(C(=O)C1)C2(C)C (configuration not stated)	9.6	-0.7%	0.3%	-0.5%
CC(C)(C)C(=O)NC1CCN(S(=O)(=O)c2ccccc2F)CC1	-1.3	3.7%	-2.2%	0.5%
COc1cc(C(C(=O)NC2CCCC2)N(C(=O)c2ccco2)c2ccccc2C(C)=O)cc(OC)c1OC (configuration not stated)	nt	5.3%	-2.8%	9.3%
CCc1ccccc1NC(=O)C1NC(=O)CC1c1ccccc1 (configuration not stated)	-1.7	0.0%	-11.1%	-2.1%
CCOc1ccc(C(O)c2nccn2Cc2ccccc2)cc1 (configuration not stated)	-4.9	?	-6.0%	-8.8%
COc1cc(NC(=O)COc2cccc3c2OC(C)(C)C3)cc(OC)c1OC	nt	4.0%	-5.5%	nt
Cc1ccc(C)c(NC(=O)CSc2nnc3n2CCCCC3)c1	3.9	0.6%	9.1%	-1.7%
CC1Cc2cc(S(=O)(=O)NCCC(=O)NCc3ccc(F)cc3)ccc2N1C(=O)C1CC1 (configuration not stated)	nt	2.8%	-0.7%	0.3%
CCCOC(=O)c1ccc(NC(=O)c2c(Cl)ccc(Cl)c2OC)cc1	-17.2	-3.7%	-4.9%	15.4%
CCOc1ccc(OCC)c(S(=O)(=O)NCc2ccccc2)c1	nt	3.3%	3.0%	6.4%
O=C(CN1C(=O)c2ccccc2S1(=O)=O)NCc1cccs1	nt	?	9.7%	-2.6%
CCCNC(=O)CS(=O)(=O)Cc1nc(-c2ccccc2C)oc1C	4.0	-5.2%	-21.6%	-4.8%
COc1cc(/C=N/NC(=O)c2cccnc2)ccc1OS(=O)(=O)c1cc(C)ccc1C	?	1.1%	-9.5%	1.2%
COc1cc(C2C(C(=O)c3ccc(C)o3)=C(O)C(=O)N2Cc2ccccc2)ccc1O (configuration not stated)	nt	2.6%	-11.1%	nt
CC(C)[C@H](NC(=O)C1CCN(S(=O)(=O)c2ccc(F)cc2)CC1)C(=O)N1CCCCCC1	nt	0.2%	-3.5%	1.2%
CC(=O)N(Cc1cccs1)Cc1cc2ccc(C)c(C)c2nc1Cl	-8.4	-0.1%	-15.1%	-0.7%
Cc1ccc(S(=O)(=O)Nc2nc(C)cc(N/N=C/c3ccc(O)cc3)n2)cc1	-6.5	-1.3%	7.4%	-10.7%
CC(C)(C)N(Cc1ccccc1)C(=O)CN1C(=O)c2ccccc2S1(=O)=O	nt	-0.1%	-1.2%	nt
CC(C)N1CC(C(=O)Nc2ccc(Cl)c(Cl)c2)CC1=O (configuration not stated)	nt	-1.2%	2.6%	-3.8%
Cc1cccc(C)c1N1CC(=O)N(c2c(C)cccc2C)CC1=O	5.9	-2.0%	1.2%	0.0%
CCCOC(=S)NC(=O)c1sc2ccccc2c1Cl	7.6	1.6%	6.9%	-46.4%
CCOC(=O)/C=C/CN(C(=O)OC(C)(C)C)S(=O)(=O)N1CC=CC1	-4.3	-0.2%	8.4%	3.4%
O=S(=O)(c1ccccc1)N1CCN(S(=O)(=O)c2ccccc2)c2ccccc21	nt	0.4%	2.3%	nt
O=c1[nH]c2c(c3c1CCCC3)CCCC2	-5.5	-2.9%	-2.7%	6.3%
O=C(NCCCN1CCOCC1)c1ccc2c(c1)N(Cc1ccccc1F)C(=O)c1ccccc1S2=O (configuration not stated)	nt	?	-4.9%	-8.1%
COc1cc(C(=O)NNC(=O)c2cc(S(=O)(=O)N(C)C)ccc2N2CCCC2)cc(OC)c1OC	nt	2.1%	20.7%	nt
Cc1nn(-c2ncc(C(F)(F)F)cc2Cl)c(=O)n1-c1ccccc1	-1.6	0.1%	1.2%	3.8%
COCCN(C(=O)COC(=O)c1sccc1C)c1c(N)n(Cc2ccccc2)c(=O)[nH]c1=O	nt	-0.1%	-6.4%	0.3%
Cc1cc(C)nc(Nc2n[nH]c(-c3cccc4ccccc34)n2)n1	-17.9	1.0%	0.0%	-25.4%
Cc1cccc(-n2nc(C)cc2N)c1	7.3	0.7%	-10.2%	-12.5%
Nc1nc(SCC(=O)N2N=C3/C(=C\c4ccco4)CCCC3C2c2ccco2)n[nH]1 (configuration not stated)	nt	2.4%	17.5%	nt
COc1ccc(CCNC(=O)Nc2ccc([N+](=O)[O-])cc2)cc1OC	-6.8	1.4%	27.8%	0.3%
C[C@H](NC(=O)Cc1cccc2ccccc12)C(=O)N1CCCN(C)CC1	-13.3	-0.1%	-11.7%	-1.5%
CCOC(=O)C1CCCN(S(=O)(=O)CCNC(=O)c2cccc(OC)c2)C1 (configuration not stated)	nt	-1.8%	13.8%	nt
CC(C)SCCCOc1ccc(C(C)(C)C)cc1	4.6	3.1%	0.7%	-2.3%
C=CCN(CC=C)CCOc1ccccc1	-2.4	0.5%	-1.0%	0.0%
O=C(COC(=O)c1ccc(S(=O)(=O)N2CCCC2)cc1)NCc1ccccc1	-2.2	-3.5%	-5.8%	-1.5%
NC(=O)COC(=O)[C@H](Cc1ccccc1)NS(=O)(=O)c1ccc2c(c1)OCCO2	nt	0.4%	9.8%	nt
Cc1cc(CSc2ccccc2C(=O)O)on1	nt	-1.1%	-2.7%	-7.6%
O=C(Nc1cccc2ncccc12)c1ccccc1[N+](=O)[O-]	nt	0.7%	7.3%	-0.2%
CCS(=O)(=O)CCSc1nc(C)cc(C)c1C#N	-7.5	1.4%	-4.4%	-6.8%
CCNC(=O)Oc1ccc(-c2csnn2)cc1	-6.1	1.8%	10.1%	3.8%
Clc1cccc(Cl)c1/C=C/c1nc2ccccc2[nH]1	2.8	0.4%	1.0%	-8.7%
COc1ccc(-c2cn(Cc3ccc(C)cc3)nn2)cc1	nt	-0.6%	-1.8%	-46.7%
CCCCCCn1c(SCC(=O)c2c(N)n(C)c(=O)n(C)c2=O)nc2ccccc21	1.1	0.0%	7.6%	-3.5%
COc1ccccc1CCC(=O)N1CCN(S(=O)(=O)c2cccc(F)c2)CC1	nt	-2.9%	7.6%	nt
CCOC(=O)c1ccc(N(C(=O)c2ccco2)C(C(=O)NC2CCCC2)c2ccncc2)cc1 (configuration not stated)	nt	2.0%	-3.9%	6.6%
Cc1cccn2c(=O)nc(SCC(=O)Nc3cccc4ccccc34)nc12	nt	0.5%	9.5%	nt
COc1ccc2c(Cl)c(C(=O)NN3CCN(C)CC3)sc2c1	5.9	0.3%	-2.1%	-2.6%
COc1ccc(N2CCN(C(=O)c3oc4ccccc4c3NC(=O)Cc3cccc(OC)c3)CC2)cc1	nt	1.1%	19.5%	4.8%
CCCCC/C=C/C1=CC(=O)C[C@H](c2ccc3c(c2)OCO3)C1	nt	?	29.5%	nt
Nc1nnnn1/N=C/c1cc(Cl)ccc1O	nt	-3.3%	?	3.6%
COc1ccc(/C=C(\C#N)C(=O)OCC(=O)Nc2ccc(-c3nc4ccc(C)cc4s3)cc2)cc1	2.2	-1.9%	-4.0%	0.6%
C#CCOC(=O)/C(=C/c1ccc(F)cc1)NC(C)=O	2.3	1.3%	37.6%	-4.4%
COC(=O)C1=CN(Cc2ccccc2)C=C(C(=O)OC)C1c1cc(F)ccc1F	nt	?	?	11.7%
CC1=C(C(=O)OC(C)C)C(c2c[nH]c3ccccc23)n2ncnc2N1 (configuration not stated)	-4.5	0.1%	1.8%	0.1%

Further compounds follow.
structure	GLA inh pH 4.5	Rango-impB inh	Rango release inh	miR-21 FLuc
O=S(=O)(Nc1cc(Sc2cccc3cccnc23)c(O)c2ccccc12)c1ccc(F)cc1	-4.2	?	?	?
O=C(NCCCCc1ccccc1)C12CN(Cc3ccccc3)CC1C(c1cccc([N+](=O)[O-])c1)=NO2 (configuration not stated)	-11.6	-0.3%	-7.9%	-1.1%
COc1cc(OC)cc(C(=O)NC(=S)Nc2cccnc2)c1	-8.7	-1.8%	-9.9%	-24.7%
Cc1ccc(-n2nc(CC#N)c(C#N)c2N)cc1	2.3	-2.1%	7.3%	-8.7%
Cc1ccsc1/C=C1\SC(N2CCOCC2)=NC1=O	1.3	-1.0%	-2.1%	-50.1%
CCOC(=O)c1cc(C#N)c(SCC(=O)c2cc(C#N)c(SC)nc2C)nc1C	1.3	?	-11.5%	-1.8%
Cn1cccc1C(=O)NCC(c1ccc(F)cc1)N1CCOCC1 (configuration not stated)	nt	7.2%	-18.8%	-11.0%
O=C(COc1ccc([N+](=O)[O-])cc1)N(Cc1cccs1)C1CCS(=O)(=O)C1 (configuration not stated)	nt	-1.2%	-9.7%	-1.5%
COc1ccc(S(=O)(=O)N2CCCC(C(=O)N3CCN(C)CC3)C2)cc1Cl (configuration not stated)	nt	-2.6%	-8.4%	-5.1%
O=C(Cc1ccccc1)N/N=C/c1cc(Br)cc(Cl)c1O	-4.2	?	?	-0.8%
O=C(CSc1nc2ccccc2nc1N1CCOCC1)N1CCN(c2ccccc2)CC1	nt	-3.3%	11.4%	15.3%
CC(C)c1nnc(NC(=O)C2CCN(c3nc4ccccc4s3)CC2)s1	-5.0	-1.2%	-5.3%	-1.7%
CCCCN(C1CCS(=O)(=O)C1)S(=O)(=O)c1cc(C)ccc1C (configuration not stated)	nt	1.9%	-8.1%	nt
CC(=O)Nc1c(O)n(C)c2ccccc12	8.7	1.8%	7.6%	-2.0%
CC(=O)N1CCN(C2=NC(=O)C(=C3CCCCC3)S2)CC1	-6.5	5.0%	6.7%	-33.4%
O=C(O)c1ccccc1-c1c2cc(I)c(=O)c(I)c-2oc2c(I)c(O)c(I)cc12	nt	3.5%	5.5%	nt
Cc1cc(=O)n(CC(=O)Nc2cc(Cl)ccc2C)c(C(C)C)n1	2.5	-2.6%	13.4%	7.0%
CN(CC(=O)Nc1ccc(F)cc1)C(=O)c1cccc(NS(=O)(=O)c2ccccc2)c1	nt	0.4%	5.9%	nt
O=C(CSc1nnc(-c2ccccn2)n1Cc1ccco1)Nc1ccc2c(c1)OCO2	6.0	1.8%	-0.2%	2.1%
CCCCN(c1ccccc1)S(=O)(=O)N(C)C	8.9	-0.1%	-0.9%	-3.6%
CCc1ccccc1NC(=O)CCS(=O)(=O)c1ccc(OC)cc1	nt	0.1%	0.2%	4.8%
CC(C)(CNC(=O)c1cc2c(s1)CCCC2)N1CCOCC1	nt	2.5%	2.3%	nt
Cc1ccccc1CN1CCNC(=O)C1CC(=O)N(C)CCC1CCOCC1 (configuration not stated)	nt	1.0%	0.0%	1.9%
CNC(=O)/C=C1\NC(C)(C)Cc2ccccc21	6.4	-1.0%	-1.0%	-0.3%
O=C(O)c1cccc(NS(=O)(=O)c2ccc(S(=O)(=O)N3CCOCC3)cc2)c1	nt	-1.8%	6.0%	-0.6%
O=C(NNC(=O)c1nn(-c2ccc(F)cc2)ccc1=O)c1ccc(Cl)cc1	-5.4	0.1%	-7.9%	0.7%
O=C1CCCC(O)=C1C1C2=C(CCCC2=O)Oc2ccccc21 (configuration not stated)	-2.2	-9.0%	-14.0%	-2.1%
CC(C)C(NC(=O)c1c(F)cccc1F)C(=O)NCC(c1ccccc1)N(C)C (configuration not stated)	-2.2	-0.3%	18.2%	-4.0%
Cc1ccc2c(CC(=O)Nc3ccc(F)c(S(=O)(=O)N4CCOCC4)c3)coc2c1	nt	2.6%	12.1%	nt

Source: PubChem
